GALR2 agonist: GALR2 (human) receptor agonism. O43603. GALR2-expressing cells, agonist activation read-out. activation, %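 (tested at 5 µM)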. 140,000 tested, 0.48% active. AID 803;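 active means above mean plus 3 SD of all compounds, about 5% in these data, not always enough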;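 further: 0% = vehicle buffer wells and 100% = reference agonist at full effect; tested in CHO reporter cells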
RGS16-Gao HTS: modulates binding between human RGS16 and Galphao. binding response (% of control), % at 10 µM. 220,000 tested, 0.38% active. O15492+P09471. AID 1441. bead-based flow cytometry RGS16-Galphao binding, fluorescence; actives lie on both sides;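 active means below 25% or above 175%, edge rows of some plates excepted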;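 further: Galphao activated by GDP with aluminum fluoride before binding; 100% = wells without compound and 0% = beads without RGS; some results beyond the cut were filed as inactive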
HSV augment: HSV replication enhancement. HSV replication augmentation in cells, fold increase. maximum fold increase. 220,000 tested, 0.005% active;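 active means peak rise of 1.5-fold or more in the series; inconclusive means self-fluorescent or not available for retest; tested in PC3 cells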;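 further: first round at 10 µM; read as green reporter fluorescence; hits show the peak of a series up to 25 µM; 1 = signal of infected wells without compound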
INS promoter inh: TRM-6 insulin promoter activity inhibition; inhibition, % at 2 µM; TRM-6 cells (human fetal islet line), insulin promoter-eGFP reporter, imaging; reporter expression induced with tamoxifen; 130,000 tested, 0.9% active;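 active means inhibition above the mean plus 3 SD, with well images judged a real hit on visual review, cut at about 60% in these data, passing the limit was not always enough; inconclusive means inhibition over the cutoff but images rejected on review; inactive means inhibition not above the cutoff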
PKD1 inh: blocks activity of human protein kinase D1; Q15139; PKD1 kinase fluorescence polarization assay; inhibition, %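 (about 10 µM by stock and volumes)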; 200,000 tested, 0.056% active; AID 797;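 active means inhibition of 50% or more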;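 further: controls were vehicle for no effect and a reference inhibitor for full effect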
Target sequence (Q15139 whole entry, looked up): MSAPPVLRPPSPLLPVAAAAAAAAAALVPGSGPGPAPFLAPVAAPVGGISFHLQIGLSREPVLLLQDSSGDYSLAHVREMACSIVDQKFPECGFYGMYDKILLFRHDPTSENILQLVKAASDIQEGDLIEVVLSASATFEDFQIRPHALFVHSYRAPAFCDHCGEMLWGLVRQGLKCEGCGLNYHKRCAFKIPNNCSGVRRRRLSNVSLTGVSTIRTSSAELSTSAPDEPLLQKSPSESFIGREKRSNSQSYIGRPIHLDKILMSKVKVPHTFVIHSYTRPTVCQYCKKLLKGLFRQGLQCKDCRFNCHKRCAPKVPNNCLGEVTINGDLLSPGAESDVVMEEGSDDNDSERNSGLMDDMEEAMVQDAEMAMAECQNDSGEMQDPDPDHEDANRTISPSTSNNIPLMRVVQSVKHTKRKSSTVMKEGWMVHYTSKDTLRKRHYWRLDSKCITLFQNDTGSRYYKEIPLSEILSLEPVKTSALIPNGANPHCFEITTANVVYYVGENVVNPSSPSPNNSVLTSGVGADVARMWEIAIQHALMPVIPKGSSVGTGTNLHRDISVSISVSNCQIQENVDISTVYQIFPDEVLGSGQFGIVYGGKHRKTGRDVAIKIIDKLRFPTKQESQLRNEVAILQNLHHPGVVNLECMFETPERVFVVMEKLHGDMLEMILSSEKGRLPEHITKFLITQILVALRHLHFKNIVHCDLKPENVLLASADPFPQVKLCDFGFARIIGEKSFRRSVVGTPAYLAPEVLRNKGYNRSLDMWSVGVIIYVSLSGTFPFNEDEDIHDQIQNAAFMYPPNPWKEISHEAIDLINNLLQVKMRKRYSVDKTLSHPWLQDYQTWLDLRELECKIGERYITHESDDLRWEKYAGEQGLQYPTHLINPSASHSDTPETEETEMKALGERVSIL
INS promoter inh cell count: recorded beside INS promoter inh, whose call it bears; normalized cell count, %; measured here: cell count, toxicity; reference of the scale not given here;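 cells exposed to compound for 48 h; stained nuclei by imaging scaled within each plate; lower means fewer cells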
HSV augment primary fold: recorded beside HSV augment, whose call it bears; fold increase; compound at 10 µM; measured here: primary screen fold increase 10 uM; tested in PC3 cells;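 GFP signal in the first replicate; 1 = infected wells without compound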
An asterisk follows results filed as active; i = inactive; ? = inconclusive; / = not tested or not shown.

SMILES	GALR2 agonist	RGS16-Gao HTS	HSV augment	HSV augment primary fold	INS promoter inh	INS promoter inh cell count	PKD1 inh
Cc1ccccc1-c1nc2ccccc2c(=O)n1/N=C/c1ccccc1[N+](=O)[O-]	-1.5	105	i	1.1	/	/	1
COC(=O)c1c(C)[nH]c(O)c1C=Nc1ccc(C#N)cc1	/	102	?	/	/	/	-4
CCCc1nnc(SCC(=O)N2CCOCC2)n1Cc1ccco1	-1.3	104	i	0.61	-8	50	-10
C=CCn1c(SCC(=O)Nc2ccc3c(c2)OCO3)nnc1-c1ccccc1OC	-2.6	97	i	1.1	-36	165	1
COc1ccc(CCc2nnc(CCC(=O)NCc3cnn(-c4ccccc4C)c3)o2)cc1	/	112	i	0.85	/	/	-2
CCOC(=O)C(C)n1ncn2cccc2c1=O (stereo unspecified)	-0.6	102	i	0.92	14	100	-7
Cc1ccc(C(=O)C[n+]2ccc(Cc3ccccc3)cc2)cc1	/	99	i	1.1	/	/	0
Cc1ccc(C(=O)C2Oc3ccccc3C3CC(c4ccc(C)cc4)=NN23)cc1 (stereo unspecified)	-1.1	14	i	1.1	33	127	-2
CCOC(=O)c1sc(-c2ccc(F)cc2)cc1NC(=O)Nc1ccccc1OC	-0.1	101	i	1	/	/	4
COCCn1cnnc1SCC(=O)Nc1cccc(S(=O)(=O)N2CCCCCC2)c1	-0.5	66	i	0.92	22	71	6
Cc1ccccc1N1C(=O)C(Cl)=C(N2CCCCCC2)C1=O	-1.7	102	i	1	-34	125	3
O=C(CN1C(=O)CC(c2ccco2)Sc2ccccc21)NCC1CCCO1 (stereo unspecified)	-3.0	91	i	0.98	29	159	-5
CCOC(=O)NC(CC(=O)O)c1ccc(OC)cc1 (stereo unspecified)	-1.1	103	i	0.94	21	76	-15
COc1c(Cl)cc(Cl)cc1CNCc1ccccc1	/	108	i	1	0	114	-10
CCC1CCC(c2nnc(-c3ccc(Br)cc3)o2)CC1 (stereo unspecified)	-0.8	13*	i	1	24	119	-6
Cc1[nH]nc2c1C(c1ccc(Cl)cc1)C(C#N)=C(N)O2 (stereo unspecified)	-0.6	98	i	0.9	/	/	-1
COCCNS(=O)(=O)c1ccc(-c2ccc(S(=O)(=O)NCCOC)cc2)cc1	-2.1	105	/	/	/	/	-6
O=S1(=O)CCN2C(c3ccc4c(c3)CCCC4)=CSC2=N1	-1.7	102	i	0.99	/	/	-6
Cc1cc(=S)c2cccc(C)c2[nH]1	/	96	i	1.1	7	144	0
Cc1ccc(/C(N)=N/OC(=O)c2cc(-c3ccccc3)nc3ccccc23)cc1	-4.0	103	i	0.75	-6	145	11

At a glance, 2 of the compounds above.
SMILES	GALR2 agonist	RGS16-Gao HTS	HSV augment	HSV augment primary fold	INS promoter inh	INS promoter inh cell count	PKD1 inh
Cc1ccccc1N1C(=O)C(Cl)=C(N2CCCCCC2)C1=O	-1.7	102	i	1	-34	125	3
O=C(CN1C(=O)CC(c2ccco2)Sc2ccccc21)NCC1CCCO1 (stereo unspecified)	-3.0	91	i	0.98	29	159	-5

Later entries
SMILES	GALR2 agonist	RGS16-Gao HTS	HSV augment	HSV augment primary fold	INS promoter inh	INS promoter inh cell count	PKD1 inh
CCOC(=O)c1ccc2c(c1)N(CC(=O)N1CCCC1)C(=O)C(C)(C)O2	-1.4	99	i	0.91	-21	100	6
CNC(=S)N(Cc1cc2cc(C)cc(C)c2[nH]c1=O)C1CCCC1	/	128	i	0.99	-43	85	-4
COc1ccc2[nH]c(=O)c(CN(CCO)S(=O)(=O)c3ccc(C)cc3)cc2c1	/	102	i	0.81	/	/	-5
COC(=O)c1cc(Cl)c(N)cc1OC	-0.8	101	i	0.83	/	/	3
NC(=O)CC[C@@H]1NC(=O)[C@H](Cc2ccccc2)NC(=O)[C@H](Cc2ccc(O)cc2)NC(=O)[C@@H](N)CSSC[C@@H](C(=O)N2CCC[C@H]2C(=O)N[C@@H](CCCN=C(N)N)C(=O)NCC(N)=O)NC(=O)[C@H](CC(N)=O)NC1=O	0.5	97	/	/	-45	112	-10
O=C(Nc1ccccc1Cl)c1ccccc1Cl	-1.1	106	/	/	-37	121	3
COc1ccc2[nH]c3c(=O)n(Cc4ccc(C(=O)N5CCC(C(N)=O)CC5)cc4)c(=S)[nH]c3c2c1	/	98	i	0.84	/	/	1
Cc1ccc2c(c1)c(=O)c(Br)c(C)n2Cc1ccccc1	0.1	96	i	1	-110	125	1
O=C(Oc1c(-c2ccccc2)oc2ccccc2c1=O)c1ccccc1	2.6	98	/	/	/	/	-3
Cc1ccc(S(=O)(=O)Nc2cc(C(F)(F)F)ccc2N2CCOCC2)c(C)c1	-1.2	114	i	0.92	-22	84	-2

Some of the entries above, reformatted.
Screens in order – GALR2 agonist	RGS16-Gao HTS	HSV augment	HSV augment primary fold	INS promoter inh	INS promoter inh cell count	PKD1 inh
Cc1ccc(S(=O)(=O)Nc2cc(C(F)(F)F)ccc2N2CCOCC2)c(C)c1
 : -1.2	114	i	0.92	-22	84	-2
COC(=O)c1cc(Cl)c(N)cc1OC
 : -0.8	101	i	0.83	/	/	3

More structures:
SMILES	GALR2 agonist	RGS16-Gao HTS	HSV augment	HSV augment primary fold	INS promoter inh	INS promoter inh cell count	PKD1 inh
O=C(NC1CCCCC1)c1ccc(CN2CCOCC2)cc1	-1.6	97	i	1	48	111	9
CCO[C@@H]1OC(C(=O)NCc2ccccc2)=C[C@H](C(C)(C)C)[C@H]1CCCO	/	104	i	0.71	/	/	/
Cc1cc(Br)ccc1SCC(=O)OC/C(O)=C(\C#N)c1nc2ccccc2[nH]1	/	101	i	0.81	/	/	/
S=C(Nc1ccc(Cl)cc1)N(CCCN1CCOCC1)Cc1cccs1	/	102	i	0.95	/	/	-6
Cc1ccc(C(=O)OCC(=O)Nc2cc(F)ccc2F)cc1NC(=O)c1ccco1	-2.2	93	i	0.85	17	167	1
N#CC(C(=O)NC1CCCCC1)=C1CCCCCC1	0.0	105	i	0.93	25	70	1
CSc1ccc(/C=N/N2CCN(Cc3ccccc3)CC2)cc1	/	109	i	1	46	93	0
Cc1cccc(NC(=O)CS(=O)(=O)c2cn(CC(=O)N3CCOCC3)c3ccccc23)c1	/	106	i	1.2	6	126	-6
COCCSc1nc2c(c(=O)[nH]c(=O)n2C)n1Cc1cccc(C)c1	-0.7	98	i	0.95	/	/	0
Cc1cc(S(=O)(=O)NCc2ccccc2)ccc1OCC(=O)NCC1CCCO1 (stereo unspecified)	/	99	i	0.83	/	/	-5
CC1CCC2(CC1)NC(=O)N(Cc1cccc(C(F)(F)F)c1)C2=O (stereo unspecified)	/	103	i	0.87	-25	85	3
O=C(N/N=C/c1ccccn1)C12CC3CC(CC(C3)C1)C2	-1.1	103	i	1.1	/	/	-3
COc1ccc(N2CCN(C(=O)c3cc4c(-c5cccc(OC)c5)nn(C)c4s3)CC2)cc1	0.2	105	i	0.88	/	/	9
CCOC(=O)C1=C(CN2CCSCC2)NC(=O)NC1c1cccc([N+](=O)[O-])c1 (stereo unspecified)	/	104	i	0.93	/	/	7
COc1ccc(CCNC(=O)CSc2nc3[nH]ncc3c(=O)[nH]2)cc1OC	/	102	i	0.89	60	109	-8
CCc1ccccc1NC(=O)CN1CCC(NC(=O)COC)CC1	-2.3	98	i	0.85	/	/	-12
CCC(C)NS(=O)(=O)c1ccc(S(=O)(=O)N2CCCC3(CCCCC3)C2)cc1 (stereo unspecified)	-2.9	102	i	0.94	-143	108	-12
CC(NC(=O)c1ccc(F)cc1)c1ccc(F)cc1 (stereo unspecified)	-0.6	109	i	1	-30	87	-9
CCCN(Cc1ccc(N(CC)CC)cc1)CC1CC1	-2.9	91	i	0.97	27	144	3
COc1ccc(CCNC(=O)CSc2nc3ccccc3o2)cc1OC	0.2	98	?	/	/	/	-5
CC(C)Cc1nc(C(N)=O)c2[nH]c(=O)n(-c3ccc(F)cc3)c2n1	-1.8	99	/	/	/	/	3
COCCn1c(SC(C)C(=O)Nc2ccc(Cl)cn2)nnc1-c1ccncc1 (stereo unspecified)	/	102	i	1.1	/	/	-1
CCc1ccc(Nc2nnc(SCC(=O)N(C)C3CCS(=O)(=O)C3)s2)cc1 (stereo unspecified)	/	96	i	0.96	/	/	/
CCOC(=O)Cc1csc(NC(=O)C(C)c2ccc([N+](=O)[O-])cc2)n1 (stereo unspecified)	/	108	i	0.94	-24	100	-8
O=C(Nc1nccs1)c1ccc(Cl)s1	-0.4	99	i	0.92	/	/	0
COc1cccc(NCc2cc3c(C(C)(C)C)nn(-c4ccccc4)c3[nH]c2=O)c1	1.0	67	i	1	/	/	-5
O=c1c(F)cn(C2CCCO2)c(=O)n1Cc1c(Cl)cccc1Cl (stereo unspecified)	-1.3	106	i	0.88	-7	129	-6
COc1ccc(NC(=O)c2ccc(N(C)S(C)(=O)=O)cc2)cc1OC	-2.5	103	i	0.92	12	87	-3
Cc1cnc(C(=O)OCC(=O)NC2CCCCCCC2)cn1	/	124	i	0.96	55	50	-6
CC(NC(=O)C(=O)NN=C1CCCCCC1)c1ccccc1 (stereo unspecified)	-1.4	106	i	1	3	84	0
CCOC(=O)c1c(NC(=O)CSc2nnnn2C)sc(C)c1-c1ccc(C)cc1	-1.2	98	i	0.75	38	101	2
O=C(CSc1nnc(-c2ccccc2)o1)N1CCc2ccccc2C1	-1.5	112	i	1	29	118	4
Cc1nccn1CC(=O)N/N=C/c1cc(Br)cs1	/	90	i	0.93	/	/	/
C[n+]1cccc(/C=N/Nc2nc(Cl)c(C#N)c(Cl)c2Cl)c1	/	96	i	0.93	/	/	/
COc1ccc(/C=C/C(=O)N[C@H](C(=O)O)C(C)C)cc1	/	106	i	1	/	/	0
Cc1ccc(SCCC(=O)OCC(=O)Nc2ccc(S(N)(=O)=O)cc2)cc1	/	102	i	0.92	/	/	/
CN(CCNC(=O)CCNC(=O)Cn1ccc2ccccc2c1=O)Cc1ccccc1	-4.8	97	i	0.85	/	/	2
CC(=O)N=c1ncn(CC(COC(C)=O)OC(C)=O)c2nc[nH]c12 (stereo unspecified)	-1.9	98	i	0.88	/	/	4
O=C(Nc1cccc(F)c1)NC1CCCCC1	-2.2	100	i	0.86	6	101	-9
CCOC(=O)N1CCN(C(=O)CSCC(=O)Nc2nc(-c3cccs3)cs2)CC1	-2.1	100	i	0.74	-31	137	-9
O=C(O)CSc1nc(C(F)(F)F)cc(=O)n1-c1ccccc1	-2.8	99	i	0.84	0	152	0
Cc1nn(Cc2nnc(SCC(=O)Nc3cccc(C(F)(F)F)c3)n2C)c(C)c1[N+](=O)[O-]	/	105	i	1.1	/	/	/
NC(=O)NNC1=Nc2cccc3cccc1c23	/	65	i	0.99	/	/	-3
Cc1cccc(NC(=O)CC2c3ccccc3Oc3ccccc32)c1	-2.4	95	i	0.96	-39	52	-1
Cc1c(/C=N/O)sc2ccccc12	/	94	i	0.97	/	/	/
C=CCc1cccc2cc(C(=O)O)c(=O)oc12	0.2	99	i	0.94	6	128	7
CC1CCN(S(=O)(=O)c2cccc(C(=O)Oc3ccc([N+](=O)[O-])cc3)c2)CC1	-0.6	24*	i	1.2	28	78	-4
CCCCN1C(=O)NC(NS(=O)(=O)c2ccc(N)cc2)(C(F)(F)F)C1=O (stereo unspecified)	-0.3	102	i	0.93	27	209	-3
